Rango release inh: inhibition of RanGTP-driven Rango-importin beta dissociation. AID 540253. O95149+P62826. Potency, µM (doses to about 46.1 µM), inactives show at the highest dose activity change, negative = inhibition. 0.071% of 340,000 active. Biochemical FRET Rango-importin beta, RanGTP-induced dissociation; active means falling FRET ratio curve, often poorly fitted, with flat reads before Ran was added; inconclusive means other falling curves, or compound fluorescence or quenching; inactive means flat or rising ratio curve;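 also: potency is read from the fitted curve at half-maximal effect; % of control where 0% means no effect; nearly all actives have a fitted effect of over 45% in size; -100% = wells without RanGTP and RCC1; the record marks most hits as doubtful in a second field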
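FRET read at 45 min, room temperature: inhibitors block the CFP/YFP signal rise when RanGTP (0.6 uM Ran, 2 mM GTP, 0.2 uM RCC1) frees Rango (0.1 uM) from importin beta (0.25 uM). Pre-read after 5 min compound exposure flags interference.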
GLA inh pH 4.5: inhibitors of human alpha-galactosidase A at pH 4.5; P06280; purified enzyme, 4-MU-alpha-Gal fluorescence, pH 4.5; activity change, negative = inhibition, % at 105 µM; 230,000 tested, under 10 active; AID 1467; inconclusive = small, poorly fitted or top-dose-only inhibition, or a rising curve; inactive = flat fitted curve, though single readings scatter; no compound was filed as active;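 also: 0% = full activity with enzyme and -100% = basal without enzyme; dose as in the result columns while the protocol names 77 µM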
Rango-impB inh: Rango-importin beta binding inhibition. AID 540263. Potency, µM (top dose mostly 92.2 µM), inactives show top-dose inhibition of complex formation. Q14974. 0.031% of 340,000 active. Rango CFP/YFP FRET sensor + importin beta, 45 min; active = rising FRET ratio curve, often small or poorly fitted; inconclusive = mostly compound fluorescence or quenching in the first reads; inactive = flat curves in all reads;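 also: potency is read from the fitted curve at half-maximal effect; 0% = DMSO wells and 100% = buffer wells lacking importin beta; nearly all actives have a fitted effect of over 15% in size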
Target sequence (Q14974 whole entry, looked up): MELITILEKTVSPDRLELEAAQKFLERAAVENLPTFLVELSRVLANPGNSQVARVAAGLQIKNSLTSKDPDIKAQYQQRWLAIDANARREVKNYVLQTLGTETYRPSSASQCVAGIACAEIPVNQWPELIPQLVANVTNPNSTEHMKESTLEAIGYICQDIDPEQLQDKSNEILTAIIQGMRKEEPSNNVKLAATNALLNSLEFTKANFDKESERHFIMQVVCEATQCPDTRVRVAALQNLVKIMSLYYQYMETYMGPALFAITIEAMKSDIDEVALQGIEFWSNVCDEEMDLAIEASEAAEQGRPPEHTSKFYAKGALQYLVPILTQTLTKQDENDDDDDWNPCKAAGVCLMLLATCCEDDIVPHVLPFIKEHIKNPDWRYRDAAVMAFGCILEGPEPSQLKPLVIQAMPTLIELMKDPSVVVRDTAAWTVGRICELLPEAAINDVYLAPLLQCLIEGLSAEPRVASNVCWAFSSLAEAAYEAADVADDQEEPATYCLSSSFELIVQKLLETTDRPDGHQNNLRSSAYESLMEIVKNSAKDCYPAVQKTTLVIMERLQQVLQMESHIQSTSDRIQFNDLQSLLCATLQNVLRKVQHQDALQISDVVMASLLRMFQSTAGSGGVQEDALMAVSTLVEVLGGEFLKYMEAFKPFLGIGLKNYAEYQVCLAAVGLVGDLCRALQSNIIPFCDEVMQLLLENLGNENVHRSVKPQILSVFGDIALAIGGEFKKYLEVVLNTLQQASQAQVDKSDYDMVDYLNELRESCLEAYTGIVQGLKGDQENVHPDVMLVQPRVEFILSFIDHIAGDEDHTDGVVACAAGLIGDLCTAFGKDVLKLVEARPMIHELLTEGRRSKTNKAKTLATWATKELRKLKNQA
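FRET biosensor (snurportin 1 IBB flanked by EYFP and cerulean), 50 nM, with compound 5 min, then 0.125 microM importin beta in PBS, 1 mM DTT, 0.02% Tween-20, 0.1% BSA. CFP/YFP ratio read after 45 min at room temperature; pre-read flags interference.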
miR-21 reporter: miR-21 reporter, rising signal | Potency, µM (highest dose often 38.3 µM), inactives show at the highest dose reporter change, positive = more light | AID 2288 | HeLa miR-21 FLuc reporter, luciferase, 48 h | 340,000 tested, under 10 active; active = well fitted rising curve with a large enough effect; inconclusive = small, poorly fitted or top-dose-only effect; inactive = no such curve, though single readings can be large or run the other way;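 also: % of control where 0% means no effect; miR-21 action dims this reporter so a rising signal means less miR-21 action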
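Compounds were titrated across several concentrations (up to approximately 40 uM) and incubated 48 hours with HeLa miR-21-FLuc reporter cells (miR-21 target sequence downstream of FLuc, endogenous miR-21). Readout was firefly luciferase luminescence after lytic detection reagent.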
The depositor's hits bear a star; ? = inconclusive; / = no result given; & = joins results of further samples; [ ] = another dose, or the depositor's remark. The list is partial; the hit share may differ from the screen's.

SMILES	Rango release inh	GLA inh pH 4.5	Rango-impB inh	miR-21 reporter
CO/N=C(\Cn1ncc(N2CCOCC2)c(Br)c1=O)c1ccc(Cl)cc1	21%	5	4.9%	-3%
CCOc1ccc(C(CC(=O)O)NC(=O)C23CC4CC(CC(C4)C2)C3)cc1 (stereo unspecified)	-5%	3	-3.0%	-1%
COC(=O)C1=C(N)OC2=C(C(=O)CC(C)(C)C2)C1c1cc2c(cc1Cl)OCO2 (stereo unspecified)	?	/	-0.4%	-1%
Cc1ccc(-c2cc(-c3ccccc3)no2)c(O)c1	-10%	4	0.4%	0%
Cc1cc(F)ccc1S(=O)(=O)N1CCCOC1CNC(=O)C(=O)NCCN1CCOCC1 (stereo unspecified)	-6%	/	-4.0%	-3%
CCOc1ccc2cc(C(=O)NCc3ccccc3)c(=N)oc2c1	?	/	?	-7%
COc1cc(OC)cc(C(=O)NC2CCN(CCCOc3ccccc3)CC2)c1	-2%	/	0.7%	-10%
Cc1cc2c([nH]c3ccccc32)c2c1OC(C)(C)C=C2	-8%	-6	4.7%	-61%
COc1ccccc1CNC(=O)C1CCN(S(=O)(=O)c2ccc3c(c2)C(C)(C)C(=O)N3C)CC1	0%	/	-4.6%	4%
COc1ccccc1C(=O)N/C(=C\c1cn(S(=O)(=O)N(C)C)c2ccccc12)C(=O)N1CCOCC1	9%	/	0.3%	0%
CCOC(=O)c1ccc(CC2SC(N)=NC2=O)cc1 (stereo unspecified)	2%	/	5.5%	-8%
Nc1ccc(Cl)c(S(=O)(=O)Nc2cccc(Cl)c2)c1	-1%	-3	-1.0%	0%
Cc1ccc(NC(=O)c2cccs2)cc1NC(=O)c1ccccc1Cl	-2%	/	-0.4%	-8%
CCCCn1c(N)c(N(CC(C)C)C(=O)c2ccc(S(=O)(=O)N3CCCCC3)cc2)c(=O)[nH]c1=O	8%	/	-0.5%	/
COc1ccc(NC(=O)Cn2ncn3nc(-c4ccc(OC)cc4)cc3c2=O)cc1	3%	/	-0.4%	-7%
CC(C)NS(=O)(=O)c1ccc(NC(=O)C2CCCCC2)cc1	-21%	4	5.4%	-14%
C=CC[C@@H](CC(=O)N(CCO)Cc1ccccc1)C(=O)NC[C@@H](OC(=O)[C@@H](CC=C)CC(=O)OC(C)(C)C)c1ccccc1	0%	/	4.8%	/
Cn1cccc1/C=N/NC(=O)c1ccco1	-7%	-9[21.1 µM]	-1.2%	-40%
COC(=O)c1[nH]c(C)c(/C(O)=C2\C(=O)C(=O)N(CCN(C)C)C2c2cc(OC)ccc2OC)c1C (stereo unspecified)	1%	11	-1.4%	-1%
O=C(Nc1ccc(Br)cc1)C1C2C=CC3(O2)C1C(=O)N(CCN1CCOCC1)C3C(=O)NC1CCCCC1 (stereo unspecified)	-5%	/	-3.9%	0%
CC1CC(C)(C)NC(=S)N1CCC(=O)NCc1ccc(F)cc1 (stereo unspecified)	-22%	-19	2.8%	-2%
O=C(OCn1ncc(Cl)c(Cl)c1=O)c1ccc(C(F)(F)F)cc1	-11%	2	3.2%	2%
COCCN(C(=O)CSc1nnc(-c2cccc(F)c2)n1N)c1c(N)n(Cc2ccccc2)c(=O)[nH]c1=O	-8%	/	-0.3%	/
COc1cc(NS(=O)(=O)c2ccc(NC(=S)NC(=O)C3CCCC3)cc2)nc(OC)n1	-9%	0	-0.7%	-3%
OCCNCCCCSc1ccc(Cl)cc1	5%	8	-1.3%	-10%
CCC(=O)Nc1ccc(C(=O)n2ccc(C)n2)cc1	-17%	6	3.7%	-4%
COCCCn1c(SCC(=O)OC2CCCCC2)nnc1-c1ccco1	-11%	-19	-5.0%	-4%
CC(C)(C)c1ccc(C(=O)N/C(=C\c2cccs2)C(=O)N2CCOCC2)cc1	-5%	/	0.6%	-8%
CCC(CC)C(=O)NCc1ccc(OC)cc1	17%	2	-2.0%	0%
C=CCC1(NCc2ccco2)CCN(CC)CC1	-12%	-1	4.5%	0%

3 entries out of the list, ordered by SMILES length, low to high:
SMILES	Rango release inh	GLA inh pH 4.5	Rango-impB inh	miR-21 reporter
OCCNCCCCSc1ccc(Cl)cc1	5%	8	-1.3%	-10%
CCC(CC)C(=O)NCc1ccc(OC)cc1	17%	2	-2.0%	0%
COc1ccccc1CNC(=O)C1CCN(S(=O)(=O)c2ccc3c(c2)C(C)(C)C(=O)N3C)CC1	0%	/	-4.6%	4%

Next section
SMILES	Rango release inh	GLA inh pH 4.5	Rango-impB inh	miR-21 reporter
COc1cc(-c2cc(C(=O)Nc3ccc(S(=O)(=O)NCc4ccco4)cc3)c3ccccc3n2)cc(OC)c1OC	1%	11	0.4%	30%
COc1cc(C)c(Cl)cc1S(=O)(=O)N(C)C	15%	-5	-1.1%	-6%
C=CCSc1nnc(NC(=O)c2cn(CC)c3nc(C)ccc3c2=O)s1	-22%	0	-0.7%	2%
CC(C)N=C(Nc1cccnc1)c1ccccc1	6%	/	0.0%	-2%
CN1CCCN(S(=O)(=O)c2cccc(Cl)c2Cl)CC1	-1%	-7	?	-4%
CCn1cc(CN2CCCC(C(=O)Nc3cccc(-c4cc5ccccc5[nH]4)c3)C2)c(C)n1 (stereo unspecified)	7%	/	1.3%	4%
C/C(CCc1oc2ccccc2c1-c1ccc(C)o1)=N/O	6%	-16	0.2%	-6%
CNC(=O)c1ccccc1NC(=O)C1CC(=O)N(C(C)C)C1 (stereo unspecified)	6%	/	-2.7%	-1%
Cc1c(N=Cc2cc(Br)cc(Br)c2O)cccc1C(=O)O	?	16	?	-1%
COc1cc(NC(=O)COc2ccccc2Cl)ccc1NC(=O)C(C)C	-13%	4	-4.3%	-23%
CCCCN1C2=C(C(=O)CCC2)C(c2ccc(Cl)c(Cl)c2)C2=C1c1ccccc1C2=O (stereo unspecified)	?	3	?	-9%
COc1cc2c(cc1OC)CN(C(=O)Nc1ccccc1)CC2	-5%	/	0.2%	-5%&-13%
COc1ccc(-c2cn3cccnc3n2)cc1F	1%	?	2.2%	-48%
COc1ccc(C2(CN(C(C)=O)C(C)=O)CCCC2)cc1OC	4%	3	-0.3%	-3%
COc1ccc(CCNC(=O)c2nnn(CC(=O)Nc3ccccc3)c2N)cc1OC	-7%	7	-2.9%	0%
COc1ccccc1NC(=O)CN1CCN(CC(=O)Nc2cc(C)ccc2OC)CC1	3%	/	6.4%	-1%
CC1CN(S(=O)(=O)c2cccc(C(=O)OCC(=O)Nc3ccc4c(c3)OCO4)c2)CC(C)O1 (stereo unspecified)	-22%	-11	0.1%	11%
COc1ccccc1NS(=O)(=O)c1cc(NC(=O)c2ccncc2)ccc1N1CCCC1	-10%	-4	0.3%	3%
CC1(C)CCCN(C(=O)c2coc(=O)c(Br)c2)C1	-23%	17	-2.4%	0%
CCn1c(Cc2cccs2)nnc1SCC(=O)Nc1ccc(OC)c(OC)c1	23%	3	2.2%	-1%
C=CCNc1cnn(-c2ccccc2)c(=O)c1Cl	2%	7	-3.1%	-34%
Cc1ccc(NC(=O)C(C)C(=O)Nc2ccc(C)cc2)cc1	-6%	5	-1.2%	-1%
COc1cccc(C=NNc2ccc([N+](=O)[O-])cn2)c1OC	-1%	/	-1.4%	/
COc1ccc(NC(=O)COC(=O)c2cccc(S(=O)(=O)N(C)C)c2)cc1	?	0	?	-2%
COc1ccc(-c2nn(-c3ccccc3)cc2C(=O)NC(=S)Nc2cc(Cl)ccc2Cl)cc1	-11%	1	-1.7%	-1%
CCOC(=O)c1sc(N(Cc2ccccc2)C(=O)CN2C(=O)CN(C)C2=O)nc1C	4%	-14	-0.1%	-26%
CN(Cc1ccco1)c1ncnc2ccc(-c3ccc4c(c3)OCO4)cc12	0%	0	2.7%	/
COc1ccc(-c2nc(CS(=O)CC(=O)NC3CCCCCC3)c(C)o2)cc1 (stereo unspecified)	9%	/	4.7%	-11%
O=C(O)CSc1c2c(nc3cc(C(=O)N4CCOCC4)ccc13)CCCC2	?	10	?	-6%
c1cc(C(c2nnnn2C2CCCC2)N2CCOCC2)ccn1 (stereo unspecified)	-10%	-7	1.0%	-5%
COc1ccc(NC(=O)C(Br)C(C)C)cc1 (stereo unspecified)	-1%	7	0.8%	-12%
COc1ccc(OC)c(C(=O)N(C)C2CCCN(Cc3ccccc3F)C2)c1 (stereo unspecified)	-6%	/	0.2%	0%
CC(O)CNCCNCc1c(OCc2ccccc2)ccc2ccccc12 (stereo unspecified)	0%	-4	0.8%	-12%
CCN(CC)S(=O)(=O)c1cccc(NC2=NCCCCC2)c1	-22%	5	5.0%	-11%
COc1cc(N=Cc2c(O)[nH]c3ccccc23)cc(OC)c1OC	-5%	-12	0.2%	18%
CC(C)Cn1c(Br)nc2c1c(=O)n(CCC#N)c(=O)n2C	2%	-5	0.7%	-11%
O=S(=O)(N/N=C/c1ccccc1F)c1ccccc1	-3%	-4	0.3%	1%
COc1ccc(-c2nn(-c3ccccc3)cc2/C=C/C(=O)OCC(=O)Nc2ccccc2C#N)cc1	4%	2	-3.9%	-4%
Cc1cc(NC(=O)c2ccc(C)c([N+](=O)[O-])c2)no1	-13%	0	0.2%	-14%
CCCCN(C(=O)CSCc1c(C)noc1C)c1c(N)n(CCC)c(=O)[nH]c1=O	-11%	/	-4.1%	2%
Cc1cc(NC(=O)c2cccc(C)c2[N+](=O)[O-])no1	0%	/	1.0%	1%
COc1cccc(NC(=S)N2CCN(S(=O)(=O)c3ccccc3)CC2)c1	4%	/	0.9%	1%
CC1(C)CC2CC(C)(CN2S(=O)(=O)c2ccc(F)cc2F)C1 (stereo unspecified)	5%	/	1.8%	/
COc1cc(N2CCCC2)c(OC)cc1/C=C(/C#N)c1ccc(Br)cc1	-2%	3	-0.4%	-2%
O=C(Nc1cccc(C(F)(F)F)c1)Nc1ccc2[nH]c(=O)[nH]c2c1	?	/	?	3%
Cn1c(=O)c(C(=O)Nc2ccccc2S(N)(=O)=O)c(O)c2ccccc21	-6%	4	-4.0%	-39%
COc1cc(CNCCO)ccc1OCC(=O)Nc1ccc(Br)cc1	11%	11	5.0%	-36%
CN(C)S(=O)(=O)c1cc(NC(=O)COC(=O)c2nc(Cl)ccc2Cl)ccc1Cl	0%	/	2.0%	/
N#Cc1ccccc1Cn1c(-c2cscn2)nc2ccccc21	6%	-1	-0.8%	-2%
COc1nc(-c2ccccc2)nc(C)c1CC(=O)O	1%	4	-0.5%	0%

2 of the compounds above, in CSV form.
compound,Rango release inh,GLA inh pH 4.5,Rango-impB inh,miR-21 reporter
CC1(C)CC2CC(C)(CN2S(=O)(=O)c2ccc(F)cc2F)C1 (stereo unspecified),5%,/,1.8%,/
COc1cc(N2CCCC2)c(OC)cc1/C=C(/C#N)c1ccc(Br)cc1,-2%,3,-0.4%,-2%

(next part)
SMILES	Rango release inh	GLA inh pH 4.5	Rango-impB inh	miR-21 reporter
N#CCC(=O)Nc1ccc(C(=O)Nc2ccc3c(c2)OCO3)cc1	0%	/	-2.4%	/
Cc1nn(C(=O)N2CCOCC2)c(C)c1C	-6%	-2	0.4%	-2%
COc1cc(-c2cc3nc4ccccc4n3c(N)c2C#N)cc(OC)c1OC	-2%	25	?	14%
CC(C)=C(NC(=O)c1ccccc1)C(=O)Nc1cccc(C)c1	1%	/	-2.7%	0%
CCOC(=O)C1=C(COC(=O)c2ncc(Cl)c(Cl)c2Cl)NC(=O)NC1C (stereo unspecified)	23%	/	-0.9%	/
COc1cc(/C=N/Nc2nc3ccccc3s2)ccc1O	0%	-7	2.3%	-68%
COc1ccc(S(=O)(=O)N2CCC(C(=O)N3CCOCC3)CC2)cc1Cl	-21%	-4	-0.9%	3%
O=C(CN(Cc1ccccc1)S(=O)(=O)c1ccccc1)NC1CC1	3%	-5	-7.3%	-1%
Cc1ccccc1CN1C(=O)C(C)S/C1=N/N=C/c1ccco1 (stereo unspecified)	-18%	-1	1.6%	1%
CCCc1cc(Nc2cccc(OC)c2)n2ncnc2n1	-17%	-4	2.1%	-11%
Cc1csc(=O)n1CC(=O)OCC(=O)Nc1cc([N+](=O)[O-])ccc1Cl	5%	/	-3.8%	/
Cc1ccccc1NC(=O)C(C)OC(=O)c1ccccc1C(=O)N(C)c1ccccc1 (stereo unspecified)	11%	/	0.0%	/

Source: PubChem (National Center for Advancing Translational Sciences (NCATS))
